NPYLR7 agonist: mosquito NPYLR7 agonism. AID 1259423. activation, % at 10 µM. hit rate 0.15% among 270,000. HEK293T NPYLR7/Galpha15, GCaMP6s calcium fluorescence; in the data active = activation above about 40%;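 note: 0% = vehicle and 100% = reference agonist at the receptor; some compounds past the cut are filed as inactive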
NPYLR7 agonist max-min: recorded beside NPYLR7 agonist, whose call it bears; activation, %; measured here: Max-Min RFU normalised activation; some inactives read as strong as hits;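 span of the calcium signal over five minutes; 0% = vehicle and 100% = native peptide agonist; compound fluorescence can raise it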
Active calls of the source: *; & = joins results of further samples. An excerpt (hit frequency here may not be typical).

Sample of the layout, five compounds:
Cc1nc2c(SCC(N)=O)nnc(-c3ccccc3)c2s1 was read as NPYLR7 agonist 7 and NPYLR7 agonist max-min 4.
`Cc1cccn2c(=O)nc(SCC(=O)N3CCCCCC3)nc12` gave NPYLR7 agonist 6 and NPYLR7 agonist max-min 6.
Screening CCOc1ccc2nc(S(=O)(=O)NC(=O)C3(C)CCN3C(=O)C3(c4ccccc4)CC3)sc2c1 (stereo not drawn) returned NPYLR7 agonist 4 and NPYLR7 agonist max-min 0.
For CCOCCCn1c(C)cn2c3c(=O)n(Cc4ccc(F)cc4)c(=O)n(C)c3nc12 the results were NPYLR7 agonist -1 and NPYLR7 agonist max-min 3.
For O=C1NCC(=O)N2CCN(C(=O)Nc3cc(Cl)cc(Cl)c3)CC12 (stereo not drawn) the results were NPYLR7 agonist 3 and NPYLR7 agonist max-min 4.

The whole of this part, previewed entries included:
Cc1nc2c(SCC(N)=O)nnc(-c3ccccc3)c2s1 was read as NPYLR7 agonist 7 and NPYLR7 agonist max-min 4.
`Cc1cccn2c(=O)nc(SCC(=O)N3CCCCCC3)nc12` gave NPYLR7 agonist 6 and NPYLR7 agonist max-min 6.
Screening CCOc1ccc2nc(S(=O)(=O)NC(=O)C3(C)CCN3C(=O)C3(c4ccccc4)CC3)sc2c1 (stereo not drawn) returned NPYLR7 agonist 4 and NPYLR7 agonist max-min 0.
For CCOCCCn1c(C)cn2c3c(=O)n(Cc4ccc(F)cc4)c(=O)n(C)c3nc12 the results were NPYLR7 agonist -1 and NPYLR7 agonist max-min 3.
For O=C1NCC(=O)N2CCN(C(=O)Nc3cc(Cl)cc(Cl)c3)CC12 (stereo not drawn) the results were NPYLR7 agonist 3 and NPYLR7 agonist max-min 4.
`O=C(CO)NCC1CCN(Cc2cccc(O)c2)C1` (stereo not drawn) gave NPYLR7 agonist -5 and NPYLR7 agonist max-min -6.
`CC(C)(C)CN(C(=O)C1CCN(C(=O)C2CC2)CC1)c1cccnc1` gave NPYLR7 agonist -14 and NPYLR7 agonist max-min -14.
For O=C(Cn1nnc2ccccc2c1=O)OCc1cc(=O)n2ccccc2n1 the results were NPYLR7 agonist -3 and NPYLR7 agonist max-min -5.
`CC(=O)Cn1c(CN2CCN(c3ccccc3F)CC2)nc2c1c(=O)n(C)c(=O)n2C` gave NPYLR7 agonist -8 and NPYLR7 agonist max-min -10.
CSc1ncc(CN2CCCC(CNC(=O)c3ccc(F)cc3)C2)cn1 (stereo not drawn) was read as NPYLR7 agonist 4 and NPYLR7 agonist max-min 2.
For O=C(NC1CCOc2ccccc21)N1CCCC1c1ccsc1 (stereo not drawn) the results were NPYLR7 agonist 5 and NPYLR7 agonist max-min 2.
`O=C(NCc1ccco1)C1CCN(S(=O)(=O)c2ccc(Cl)cc2)CC1` gave NPYLR7 agonist -7 and NPYLR7 agonist max-min -8.

Three compounds out of the list, sorted by molecular weight, high to low:
Screening CCOc1ccc2nc(S(=O)(=O)NC(=O)C3(C)CCN3C(=O)C3(c4ccccc4)CC3)sc2c1 (stereo not drawn) returned NPYLR7 agonist 4 and NPYLR7 agonist max-min 0.
`Cc1cccn2c(=O)nc(SCC(=O)N3CCCCCC3)nc12` gave NPYLR7 agonist 6 and NPYLR7 agonist max-min 6.
For O=C(NC1CCOc2ccccc21)N1CCCC1c1ccsc1 (stereo not drawn) the results were NPYLR7 agonist 5 and NPYLR7 agonist max-min 2.

(listing goes on)
`COc1cccc([C@@H]2CCCN(S(=O)(=O)NCc3ccccc3)C2)c1` gave NPYLR7 agonist 5 and NPYLR7 agonist max-min 4.
`CN(C)S(=O)(=O)c1ccc(C(=O)Nc2nccs2)cc1` gave NPYLR7 agonist 2 and NPYLR7 agonist max-min -7.
For CSc1ccc(C(NC(=S)Nc2c(Cl)cccc2Cl)c2cccc(Cl)c2Cl)cc1 (stereo not drawn) the results were NPYLR7 agonist -8 and NPYLR7 agonist max-min -16.
`Cn1c(COc2ccccc2)n[nH]c1=S` gave NPYLR7 agonist -8 and NPYLR7 agonist max-min -10.
For CCCc1nc(N2CCN(C(=O)Nc3ccccc3Br)CC2)c2c(-c3ccccc3)noc2n1 the results were NPYLR7 agonist 20 and NPYLR7 agonist max-min 4.
Screening O=C(CCc1nnc(C2(c3ccc(Cl)cc3)CCC2)o1)NCC1CC12CCCCC2 (stereo not drawn) returned NPYLR7 agonist 4 and NPYLR7 agonist max-min 0.
CNc1nc(-c2cccc(C)c2C)ncc1F was read as NPYLR7 agonist -2 and NPYLR7 agonist max-min -3.
Screening CCN(CC(=O)NC1CCC(N2C(=O)CCC2=O)CC1)c1ccccc1 (stereo not drawn) returned NPYLR7 agonist 3 and NPYLR7 agonist max-min 1.
Fc1ccc(-c2nc3ccc(Cl)cn3c2NC2CCCCC2)cc1 was read as NPYLR7 agonist -1 and NPYLR7 agonist max-min -3.
For CCOC(=O)C1CCCN(C(=O)c2cc(-c3ccc(Cl)cc3)n(-c3ccccc3C)c2C)C1 (stereo not drawn) the results were NPYLR7 agonist -10 and NPYLR7 agonist max-min -1.
Screening O=C(CSCc1nc(C2CC2)no1)NCc1cc(F)cc(F)c1 returned NPYLR7 agonist 6 and NPYLR7 agonist max-min 5.
Cc1ccc(NC(=O)CC(=O)NC(C)c2cnn(C)c2)cc1 (stereo not drawn) was read as NPYLR7 agonist -1 and NPYLR7 agonist max-min -7.
CCOC(=O)[C@@H]1CCCC[C@@H]1NC(=O)c1ccc(SCC(=O)c2ccc(Cl)cc2)nc1 was read as NPYLR7 agonist -8 and NPYLR7 agonist max-min -13.
Cc1cnn(C)c1NC(=O)c1cccc(CN(C)Cc2cnccn2)c1 was read as NPYLR7 agonist 6 and NPYLR7 agonist max-min 3.
COc1ccccc1NC(=O)c1ccc2c(c1N)C(=O)c1ccccc1C2=O was read as NPYLR7 agonist -10 and NPYLR7 agonist max-min -10.
O=S(=O)(c1cc(Cl)cc(Cl)c1)N1CC2C3CCC(C3)C21 (stereo not drawn) was read as NPYLR7 agonist -6 and NPYLR7 agonist max-min -7.
O=C1CCC2(CCN1)CCN(C(=O)c1ccc(-c3ncn[nH]3)cc1)CC2 was read as NPYLR7 agonist 0 and NPYLR7 agonist max-min 4.
Screening CNc1nc(-c2ccccc2)cn2ccnc12 returned NPYLR7 agonist 0 and NPYLR7 agonist max-min 0.
For CCn1cc(S(=O)(=O)N2CCC(=O)N(CC3CC3)C(C(C)C)C2)cn1 (stereo not drawn) the results were NPYLR7 agonist 5 and NPYLR7 agonist max-min 4.
For COc1cccc(C(=O)NC(C(=O)NCc2ccco2)C2CCN(C(=O)Cc3ccccc3)CC2)c1 (stereo not drawn) the results were NPYLR7 agonist 29 and NPYLR7 agonist max-min 25.
Screening O=C(Nc1ccc(Br)cc1)c1ccc(NS(=O)(=O)c2ccc3c(c2)OCCO3)cc1 returned NPYLR7 agonist -1 and NPYLR7 agonist max-min 5.
`CN(C)CCN(Cc1cc(NC(=O)c2cccc(F)c2)ccc1N(C)C)C(=O)c1ccco1` gave NPYLR7 agonist -9 and NPYLR7 agonist max-min 7.
For COC(=O)c1ccc(NC(=O)Cn2cc(OC)c(=O)cc2CSc2nc(C)cs2)cc1 the results were NPYLR7 agonist -6 and NPYLR7 agonist max-min -8.
`CCN(CCO)C(=O)Nc1c[nH]c2ccccc12` gave NPYLR7 agonist 0 and NPYLR7 agonist max-min -7.
Screening O=C1NC(=S)C(=Cc2cccnc2)S1 returned NPYLR7 agonist 5 and NPYLR7 agonist max-min 12.
`N#Cc1ccc(NC(=O)Nc2ccccc2Br)c2n[nH]nc12` gave NPYLR7 agonist 16 and NPYLR7 agonist max-min 3.
For Cc1ccccc1C(=O)N1CCN(c2nc(-c3ccc(Cl)cc3)nc(C)c2Cc2ccccc2)CC1 the results were NPYLR7 agonist -4 and NPYLR7 agonist max-min 2.
For CCc1c(C)c(C#N)c2nc3ccccc3n2c1Nc1c(C)n(C)n(-c2ccccc2)c1=O the results were NPYLR7 agonist 9 and NPYLR7 agonist max-min 3.
For O=C(Cc1cc(-c2cc3ccccc3o2)on1)Nc1cccc(F)c1 the results were NPYLR7 agonist 9 and NPYLR7 agonist max-min 11.
Screening CCOC(=O)Cn1c(=O)c2c(nc3n2CC(C)CN3c2ccc(OC)cc2)n(C)c1=O (stereo not drawn) returned NPYLR7 agonist 25 and NPYLR7 agonist max-min 13.
`CC1CCC(C(N)=O)CN1C(=O)COc1ccc(Cl)c2cccnc12` (stereo not drawn) gave NPYLR7 agonist -3 and NPYLR7 agonist max-min -5.
Screening CC1(C)CC(c2nccn2-c2ccc(Oc3nn[nH]n3)cc2)CCO1 (stereo not drawn) returned NPYLR7 agonist 15 and NPYLR7 agonist max-min 11.
CNc1cccc(-c2cccc(O)c2)n1 was read as NPYLR7 agonist 1 and NPYLR7 agonist max-min -1.
For COc1ccc(Cl)cc1CSCC(O)CO (stereo not drawn) the results were NPYLR7 agonist -1 and NPYLR7 agonist max-min -5.
For O=S(=O)(c1ccc(N2CCCC2c2cccs2)nc1)N1CCOCC1 (stereo not drawn) the results were NPYLR7 agonist 7 and NPYLR7 agonist max-min 6.
COc1ccc2c(c1)CCN2S(=O)(=O)c1ccc(F)c(C(=O)O)c1 was read as NPYLR7 agonist 4 and NPYLR7 agonist max-min -2.
`COc1cc(OC)c(NC(=O)c2cccc(C#N)c2)cc1Cl` gave NPYLR7 agonist -1 and NPYLR7 agonist max-min -3.
For CCOC(=O)N1CCN(C(=O)c2cccc(CSc3nc(Cl)cc(N4CCCC4)n3)c2)CC1 the results were NPYLR7 agonist -20 and NPYLR7 agonist max-min -13.
Cc1cc(C)c(-c2cc(NC(=O)c3cnn(C)c3)n[nH]2)cc1C was read as NPYLR7 agonist -5 and NPYLR7 agonist max-min -6.
O=S(=O)(NCCNc1nc(Cc2ccccc2)nc2cc(Cl)ccc12)c1ccccc1 was read as NPYLR7 agonist 6 and NPYLR7 agonist max-min 10.
`Cc1cc(N2CCN(C(C)C(=O)NCCC3=CCCCC3)CC2)nc(C(C)C)n1` (stereo not drawn) gave NPYLR7 agonist 10 and NPYLR7 agonist max-min 7.
Cc1ccn2c(=O)c(C(=O)NCCC(C)C)c(O)nc2c1 was read as NPYLR7 agonist -1 and NPYLR7 agonist max-min 4.
COc1cccc(C2c3[nH]c4ccccc4c3CCN2Cc2cnn(C)c2)c1OC (stereo not drawn) was read as NPYLR7 agonist 16 and NPYLR7 agonist max-min 4.
`CCCn1nnnc1CN1CCC(CC(=O)N2CCN(C)CC2)CC1` gave NPYLR7 agonist -2 and NPYLR7 agonist max-min 6.
`COc1cc(C=C2C(=O)N(C)c3ccccc32)cc(OC)c1OC(C)=O` gave NPYLR7 agonist -2 and NPYLR7 agonist max-min -3.
Screening COc1ccccc1C1NC(=O)N(C)C2=C1C(=O)N(CCC(=O)N1CCN(c3cccc(C(F)(F)F)c3)CC1)C2 (stereo not drawn) returned NPYLR7 agonist 1 and NPYLR7 agonist max-min 15.
`O=C(C1CCCC1)N(Cc1ccc(F)cc1)CC1CC(c2ccc(Cl)cc2)=NO1` (stereo not drawn) gave NPYLR7 agonist 22 and NPYLR7 agonist max-min 20.
Screening CC1C(=O)N(c2cccc(C(F)(F)F)c2)CCN1C(=O)CCc1ccccc1 (stereo not drawn) returned NPYLR7 agonist -6 and NPYLR7 agonist max-min 0.
CCC1C(=O)NCCN1C(=O)Nc1cc(-c2ccco2)ccc1F (stereo not drawn) was read as NPYLR7 agonist -23 and NPYLR7 agonist max-min -23.
Screening COc1ccc(/C=C/CN(C)CCCc2nc(-c3ccc(Cl)cc3)c3ccccn23)cc1 returned NPYLR7 agonist 11 and NPYLR7 agonist max-min 11.
`CCc1cccc(N2C(=O)CSC2c2cccc(NC(=O)C(C)(C)CCl)c2)c1` (stereo not drawn) gave NPYLR7 agonist 22 and NPYLR7 agonist max-min 21.
Screening CC(=O)Nc1ccc(-c2c(-c3ccccc3)ncn2Cc2ncc[nH]2)cc1 returned NPYLR7 agonist 18 and NPYLR7 agonist max-min 15.
CC(C)C(C)N(C)C(=O)Nc1ccc(-n2cncn2)nc1 (stereo not drawn) was read as NPYLR7 agonist 6 and NPYLR7 agonist max-min 6.
CCOC(=O)C1(NC(=S)N(CC)CC)Sc2cc(C)ccc2NC1=O (stereo not drawn) was read as NPYLR7 agonist -9 and NPYLR7 agonist max-min -13.
`COc1ccc(-c2c(NC(=O)CN3CCC(C)CC3)oc3ccccc3c2=O)cc1OC` gave NPYLR7 agonist 7 and NPYLR7 agonist max-min 4.
For CCOc1ccc(-c2ccc(=O)n(CC(=O)N3CCCCC3)n2)cc1 the results were NPYLR7 agonist 11 and NPYLR7 agonist max-min 5.
Screening Cc1ccc(CN(Cc2ccc(F)cc2)C(=O)CN(C(=O)C2CC2)C2CC2)s1 returned NPYLR7 agonist -9 and NPYLR7 agonist max-min -5.
`O=C(CCn1[nH]c(=O)ccc1=O)Nc1nc2ccccc2[nH]1` gave NPYLR7 agonist 1 and NPYLR7 agonist max-min 1.
Screening O=C(Cc1ccccc1O)N1CCC2(CCOCC2)CC1 returned NPYLR7 agonist 4 and NPYLR7 agonist max-min 4.
For Cc1ccc(S(=O)(=O)NCC2CCCN(Cc3nsc(N(C)C)n3)C2)cc1 (stereo not drawn) the results were NPYLR7 agonist 12 and NPYLR7 agonist max-min 10.
O=C(NCCCn1ccnc1)Nc1ccc(Cl)c(C(F)(F)F)c1 was read as NPYLR7 agonist -4 and NPYLR7 agonist max-min -7.
For Cc1nnc(CSc2nnc(N)s2)o1 the results were NPYLR7 agonist 4 and NPYLR7 agonist max-min 5.
Cc1nccn1-c1ccc(NC(=O)C2CCCN(C3CCOCC3)C2)cc1 (stereo not drawn) was read as NPYLR7 agonist -6&0 and NPYLR7 agonist max-min -8&-4.
C=CCNC(=O)N1CCN(C(C(=O)N2CCCCC2)C2CCCC2)CC1 (stereo not drawn) was read as NPYLR7 agonist -4 and NPYLR7 agonist max-min -4.
CCN1CCC(NS(=O)(=O)c2cc(C)ccc2C)CC1 was read as NPYLR7 agonist -8 and NPYLR7 agonist max-min -10.
Screening CCc1nc2n(n1)C(=O)C(C(c1ccc(F)c(F)c1)N1CCOCC1)S2 (stereo not drawn) returned NPYLR7 agonist -1 and NPYLR7 agonist max-min -7.

High-throughput results (PubChem)
